# Assay outcomes as filed in PubChem BioAssay.
# KCNQ2 inh: KCNQ2 potassium channel inhibitors, primary screen, cell-based, CHO-K1, FluxOR thallium flux, B-score (AID 2156); O88943; B-score at 10 µM; 310,000 tested, 1.1% active; 20 min; active compounds read low; only compounds with negative scores are shown here; some inactives read as strong as hits;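 active means fluorescence ratio B-score at most minus 3 library SDs, with starting brightness B-score within 2 library SDs, cut at about -5.5 in these data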
# Target sequence (O88943 whole entry, looked up): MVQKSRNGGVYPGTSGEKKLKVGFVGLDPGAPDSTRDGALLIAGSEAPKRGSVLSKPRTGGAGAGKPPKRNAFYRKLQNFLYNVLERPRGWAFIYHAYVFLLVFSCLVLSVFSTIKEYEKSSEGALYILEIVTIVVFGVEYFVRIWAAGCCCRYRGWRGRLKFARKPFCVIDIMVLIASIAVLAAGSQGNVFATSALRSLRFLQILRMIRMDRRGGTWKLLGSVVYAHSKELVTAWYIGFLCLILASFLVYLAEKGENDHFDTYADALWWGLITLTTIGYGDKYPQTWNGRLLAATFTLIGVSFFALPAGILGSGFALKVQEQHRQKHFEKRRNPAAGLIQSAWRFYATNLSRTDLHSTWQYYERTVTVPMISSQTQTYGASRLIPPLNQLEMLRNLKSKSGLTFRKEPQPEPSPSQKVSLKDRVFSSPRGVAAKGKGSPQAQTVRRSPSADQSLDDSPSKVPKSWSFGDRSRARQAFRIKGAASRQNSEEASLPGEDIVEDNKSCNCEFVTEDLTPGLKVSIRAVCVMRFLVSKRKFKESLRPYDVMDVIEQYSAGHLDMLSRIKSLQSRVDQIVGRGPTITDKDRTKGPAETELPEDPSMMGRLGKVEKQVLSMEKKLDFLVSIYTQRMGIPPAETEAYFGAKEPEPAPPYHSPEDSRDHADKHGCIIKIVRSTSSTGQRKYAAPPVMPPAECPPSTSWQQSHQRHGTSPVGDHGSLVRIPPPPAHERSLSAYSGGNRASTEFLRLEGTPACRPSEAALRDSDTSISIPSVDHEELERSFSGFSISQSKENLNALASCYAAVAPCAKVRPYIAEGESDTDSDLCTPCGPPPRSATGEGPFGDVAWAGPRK
# KCNQ2 inh baseline: further read-out of KCNQ2 inh, marked with its call; B-score; measured here: initial fluorescence intensity artifact check;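 brightness before thallium and not channel activity; 0 = typical well and far values either way flag optical interference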
# Starred values were filed as active, the others as inactive; i = inactive. An excerpt, so the mix of outcomes need not match the whole.
# Each structure is followed by: KCNQ2 inh baseline, KCNQ2 inh
Cc1[nH]c2ccccc2c1C(c1ccncc1)N1CCCCC1 (configuration not stated)
    0.01, i
Fc1cccc(Cl)c1-c1nnc2ccc3ccccc3n12
    -0.59, i
Cc1ccc2nc(Cn3cc(C(F)(F)F)cc(Cl)c3=O)cc(=O)n2c1
    0.79, i
Cc1ccc(-c2cc(C(F)(F)F)n3ncc(C(=O)NCc4ccco4)c3n2)cc1
    2.1, i
O=C(C1CC(=O)N(C2CCCC2)C1)N1CCN(c2ccc(F)cc2)CC1 (configuration not stated)
    -1.2, i
Cc1cccc(N/N=C/c2ccccc2O)c1
    1.3, i
CC12CC(c3ccccc3O1)N(C(=O)c1ccco1)C(=S)N2c1ccccc1 (configuration not stated)
    -0.47, i
COc1ccc2[nH]c3c(=O)n(Cc4ccc(C(=O)NCC5CCCO5)cc4)c(=S)[nH]c3c2c1 (configuration not stated)
    -1.4, i
CCCCNc1c(C(=O)OCC)c(C)nc2c1cnn2CC
    0.37, i
CN(CCOC(=O)C1c2ccccc2Oc2ccccc21)C(C)(C)C
    1.9, i
CC1(C)CC(=O)C2=C(C1)N(c1ccc(F)cc1)C(=O)CC2c1ccsc1 (configuration not stated)
    0.92, i
O=C(c1ccc2c(c1)[nH]c(=S)n1c3ccccc3nc21)N1CCN(c2cccc(Cl)c2)CC1
    0.01, i
CCC1CCCCN1CCCNC(=O)c1cc2c(=O)[nH]c3ccccc3c2n1C (configuration not stated)
    3, i
Cc1ccccc1-n1c(O)c(C=NC2CCS(=O)(=O)C2)c2ccccc2c1=O (configuration not stated)
    -0.03, i
CC(=O)Nc1ccc(S(=O)(=O)N2CCN(S(=O)(=O)N3CCOCC3)CC2)cc1
    -0.01, i
O=C(O)c1ccc(NC(=O)c2cccc(NC(=O)c3cccs3)c2)cc1
    1.1, i
COc1ccccc1N(CC(=O)NC(C)C)S(=O)(=O)c1cccs1
    1, i
COc1ccccc1C(=O)N/C(=C\c1ccc(Br)cc1)C(=O)NCCC(=O)O
    1.9, i
Cc1ccccc1C(=O)NCc1ccncc1
    -1.1, i
CCOC(=O)N1CCN(CC(c2ccccc2)c2ccccc2)CC1
    0.48, i
Clc1ccccc1-c1nnc2sc(CCc3ccccc3)nn12
    -0.96, i
Cc1ccc(S(=O)(=O)N2CCC(C(=O)N/N=C/c3ccncc3)CC2)cc1
    2.6, i
COc1ccc(-c2cc(-c3ccccc3)nc3ncnn23)cc1
    -0.03, i
O=C(Oc1ccc(OC(=O)c2ccco2)c(S(=O)(=O)c2ccc(Cl)cc2)c1)c1ccco1
    1.5, i
NC(=O)CC(NC(=O)Cc1cccc2ccccc12)c1ccc(NCCCN2CCCC2=O)c([N+](=O)[O-])c1 (configuration not stated)
    -1.5, i
Cc1ccc(C(=O)NC(=S)NCCN2CCOCC2)cc1
    -0.82, i
Cc1onc(-c2ccccc2)c1-c1nc2cc(Cl)ccc2c(=O)o1
    -1.3, i
COc1ccc(C(C(=O)NCCC(C)C)N(CCO)C(=O)c2snc(C(N)=O)c2N)cc1 (configuration not stated)
    0.79, i
COC(=O)c1ccc(C(=O)OC)c(NC(=O)CN(C)Cc2ccc(Cl)c(Cl)c2)c1
    -1.6, i
COc1ccc(C(=O)O)cc1S(=O)(=O)NCCN(C)C
    -1.3, i
O=C1CCN(C(=S)NCc2ccccc2)CC1
    1.1, i
CCN(CC)CCNC(=O)CNC(=O)c1nn(-c2ccc(OC)cc2)c(=O)c2ccccc12
    0.02, i
CCc1nc(-n2[nH]c(=O)c3ccccc3c2=O)c2c3c(sc2n1)CCCC3
    0.63, i
Cc1cccc(N=C2NC(=O)/C(=C3/C(=O)N(C)c4ccccc43)S2)c1C
    -0.09, i
Cc1ccc2nc3c(cc(C(=O)NC4CCS(=O)(=O)C4)n3Cc3ccccc3)c(=O)n2c1 (configuration not stated)
    -0.5, i
CCOc1ccc(CCNC(=O)C2CSC3(C)CCC(=O)N23)cc1OCC (configuration not stated)
    -0.21, i
COc1cccc(-n2c(SCC(=O)c3c[nH]c4ccccc34)nc3ccccc3c2=O)c1
    -2, i
COc1ccc(/C=C2\SC(=S)N(Cc3cccnc3)C2=O)cc1C
    0.03, i
Cc1ccc(C)c(OCC(=O)Nc2nc3ccc([N+](=O)[O-])cc3s2)c1C
    -0.89, i
COc1ccc(NC(=O)CN(C)C(=O)c2cccc(S(=O)(=O)N3CCN(Cc4ccccc4)CC3)c2)cc1
    -0.98, i
CC(C)(C)c1ccc(C(=O)OCCNC(=O)c2c(Cl)nc3ccccn23)cc1
    -3.7, i
CC(O)CNCCCCOc1ccc(OCc2ccccc2)cc1 (configuration not stated)
    0.78, i
O=C(NNc1c(Cl)cccc1Cl)c1c(F)cccc1Cl
    -0.01, i
O=C(Nc1ccccc1)OCc1cc(-c2ccccc2Cl)on1
    0.95, i
COc1ccc(CN2CN=C(Nc3nc4ccccc4s3)NC2)cc1
    0.58, i
C[C@H](CCC(=O)NCC(=O)O)[C@H]1CC[C@H]2C3[C@H](O)C[C@@H]4C[C@H](O)CC[C@]4(C)[C@H]3C[C@H](O)[C@]12C (some centres not stated)
    -0.02, i
CC(C)(C)c1nnc(NC(=O)c2cccnc2Cl)s1
    1.1, i
CC(Oc1ccccc1)C(=O)N1CCN=C1SCc1ccccc1F (configuration not stated)
    -2.1, i
CN(C)C(=O)c1ccc(NC(=O)CN2C(=O)NC3(CCCc4ccccc43)C2=O)cc1 (configuration not stated)
    0.43, i
COc1ccc(OC)c(C(=O)N/N=C/c2ccccn2)c1
    0.36, i

# (continued)
# Each structure is followed by: KCNQ2 inh baseline, KCNQ2 inh
CCOC(=O)[C@@H]1[C@H]2COc3cc(OC)ccc3[C@@H]2N2C(=O)N(c3ccc(C(F)(F)F)cc3)C(=O)[C@@]12C
    -2.1, i
COCc1cc(C)n(CC(=O)Nc2c(C)cccc2C)c(=O)c1C#N
    -0.03, i
COc1ccc(/C(C)=N/NC(=O)CNC(=O)c2cccnc2)cc1
    -0.58, i
CCNC(=O)/C(=C/c1ccco1)NC(=O)/C=C/c1ccccc1
    0.59, i
CC(CCc1ccccc1)NC(=O)C1CCCN(C(=O)c2cc3sccc3n2C)C1 (configuration not stated)
    3, i
CCOC(=O)Nc1sc(NS(=O)(=O)c2ccc(C)cc2)nc1C
    1.7, i
COC(=O)c1ccc(NC(=O)CSc2nnc(C3CC3)n2C)cc1
    3.1, i
COc1ccc(Cc2nnc(SCC(=O)NC3CCCCC3)n2C)cc1
    -0.83, i
COc1ccc(Cl)cc1NC(=O)C(=O)N/N=C/c1cc(C)n(-c2ccc(C)cc2)c1C
    -1.8, i
O=C(C1=C[C@@H](c2ccccc2)C[C@@H](OCc2ccc(CO)cc2)O1)N1CCN(Cc2ccc3c(c2)OCO3)CC1
    -0.11*, -5.8*
COc1cccc(C=Nc2ccccc2C(=O)Nc2ccccc2)c1O
    -0.3, i
COc1ccccc1OCCNC(=O)CN(c1cccc(C)c1)S(=O)(=O)c1ccccc1
    -0.41, i
O=C(O)c1cccn1Cc1ccccc1F
    0.02, i
CCc1nnc(NC(=O)C2CCN(C(=O)c3ccco3)CC2)s1
    -1.3, i
Cc1ccn2cc(-c3cccc(NC(=O)c4ccccc4)c3)nc2c1
    0.47, i
COc1cc2c(cc1OC)C1=CC(=O)C(=O)N1C(C)(C)C2
    7.8, i
Cc1cccc(C(=O)NC2CCN(CC(=O)NCc3ccccc3F)CC2)c1
    -1.1, i
O=C(NCCc1ccc(Cl)cc1)C1CCN(S(=O)(=O)N2CCCCC2)CC1
    -0.55, i
C/C(=N/NC(=O)C(C)n1nc(C)c([N+](=O)[O-])c1C)c1ccc(OCC(N)=O)cc1 (configuration not stated)
    -0.77, i
O=C(COc1ccc(Br)cc1)N1CCOCC1
    -0.04, i
O=C(NCC1CCCO1)c1ccc(C(=O)NCC2CCCO2)cc1 (configuration not stated)
    1.3, i
CCOC(=O)CNC(=O)CSc1nnc(-c2ccncc2)n1-c1ccc(Cl)cc1
    0.33, i
N=c1c(C(=O)NC2CCCCC2)cc2c(=O)n3ccccc3nc2n1Cc1ccc(F)cc1
    1.7, i
Cc1nc2sccn2c(=O)c1S(=O)(=O)NCCc1ccccc1
    -0.27, i
O=C(NCC1CCCO1)/C(=C/c1ccccc1F)NC(=O)c1ccccc1 (configuration not stated)
    0.53, i
Cc1ccc(C(C(=O)NCc2ccco2)N(Cc2ccco2)C(=O)CNC(=O)c2ccco2)cc1 (configuration not stated)
    -2.3, i
CC(NC(=O)CN(c1ccc(Br)cc1)S(C)(=O)=O)c1ccccc1 (configuration not stated)
    -0.17, i
Cc1ccc(C)n1-c1ccc(N2CCOCC2)nc1
    0.83, i
Cc1ccc(C)c(NC(=S)Nc2ncccc2C)c1
    1.4, i
CCOC(=O)c1c(C)[nH]c(C)c1C(=O)COC(=O)c1cc2ccccc2cc1O
    -1.7, i
COc1cccc(C(=O)OCCNC(=O)c2cccnc2)c1
    -0.34, i
Cc1nonc1CC(=O)N1CCc2c([nH]c3ccccc23)C1c1ccccc1F (configuration not stated)
    0.57, i
CCC(=O)NCCCNc1nc2c(C)cccc2cc1C#N
    2.5, i
CCOc1ccc(CNC(=O)C2CCN(S(=O)(=O)N3CCCC3)CC2)cc1OC
    -0.07, i
C=CCNc1nc(Cl)nc(NCc2ccco2)n1
    -1, i
CCOc1ccc(-n2c(=O)c3sccc3n(CC(=O)Nc3cccc(OC)c3)c2=O)cc1
    -0.05, i
Cc1nnc(C)c2c(C)n(-c3ccc(Br)cc3)c(C)c12
    0.13, i
Cc1nn(CC(=O)Nc2ccc(Cl)cn2)c(C)c1Br
    0.7, i
Cc1ccc(C)c(OCc2cc(C(=O)N3CCc4sccc4C3)no2)c1
    -0.22, i
COCCNC(=O)C(c1ccccc1)N(Cc1cccs1)C(=O)Cn1nnc2ccccc21 (configuration not stated)
    -1.5, i

# Seven entries already listed, ordered by count of non-hydrogen atoms, smallest number first:
# Each structure is followed by: KCNQ2 inh baseline, KCNQ2 inh
C=CCNc1nc(Cl)nc(NCc2ccco2)n1
    -1, i
Cc1nn(CC(=O)Nc2ccc(Cl)cn2)c(C)c1Br
    0.7, i
Cc1nnc(C)c2c(C)n(-c3ccc(Br)cc3)c(C)c12
    0.13, i
CCC(=O)NCCCNc1nc2c(C)cccc2cc1C#N
    2.5, i
CCOc1ccc(CNC(=O)C2CCN(S(=O)(=O)N3CCCC3)CC2)cc1OC
    -0.07, i
CCOc1ccc(-n2c(=O)c3sccc3n(CC(=O)Nc3cccc(OC)c3)c2=O)cc1
    -0.05, i
COCCNC(=O)C(c1ccccc1)N(Cc1cccs1)C(=O)Cn1nnc2ccccc21 (configuration not stated)
    -1.5, i

# (cont.)
# Each structure is followed by: KCNQ2 inh baseline, KCNQ2 inh
O=C(Nc1ccccc1N1CCCC1)c1cc(Cl)ccc1Cl
    -1.1*, -5.7*
CC(C)(C)NC(=O)C(=O)NCc1ccncc1
    -1.2, i
O=C(Nc1ccc(OCC(F)(F)C(F)F)c(C(F)(F)F)c1)c1ccccc1O
    -1.1, i
Cc1cc(Cl)ccc1NC(=S)NCc1ccc(S(N)(=O)=O)cc1
    0.47, i
c1ccc(N/N=C(\Cc2ncc[nH]2)c2ccccc2)cc1
    0.72, i
O=c1[nH]c(C2CCCN(S(=O)(=O)c3cccc(F)c3)C2)nc2c1nnn2Cc1ccccc1 (configuration not stated)
    2.4, i
CSc1ccc(/C=N/NC(=O)c2cccc(Cl)c2)cc1
    -0.21, i
O=C(N[C@@H](c1ccccc1)[C@H](O)c1ccccc1)[C@@H]1CCCN1C(=O)OCc1ccccc1
    1.3, i
CCOc1ccc(-c2cc(C(=O)N/N=C(\C)c3cccnc3)c3ccccc3n2)cc1
    0.22, i
CC1CCN(C(=O)COC(=O)c2ccc(F)c(S(=O)(=O)N3CCOCC3)c2)CC1
    -2.5, i
OCc1cn(-c2ccccc2)nc1-c1ccc(Br)cc1
    1, i
CCCCCCNc1nc(Cl)nc(NC(C)(C)CO)n1
    1.4, i
CSc1nc(-c2ccco2)cc(-c2ccccc2)c1C#N
    -0.75, i
CC(C)(O)CCc1c(-c2ccc(O)cc2O)oc2c3c(cc(O)c2c1=O)OC(C)(C)C=C3
    -0.06, i
CCS(=O)c1ccccc1C(=O)O (configuration not stated)
    0.41, i
COc1ccc(C(CNC(=O)COc2ccccc2C)N2CCCC2)cc1 (configuration not stated)
    -0.05, i
N#CC[C@H](Cc1ccccc1)N1CCN(Cc2ccccc2)CCC1=O
    -0.16, i
Cc1cc(O)c(C(=O)/C=C/c2ccccc2Br)c(=O)o1
    -0.7, i
COc1cc(C(C[N+](=O)[O-])c2c(C)[nH]c3ccccc23)ccc1O (configuration not stated)
    0.68, i
c1ccc(CN2CCN(C(c3ccccc3)c3nnnn3Cc3ccccc3)CC2)cc1 (configuration not stated)
    -0.01, i
CCC(=O)C1CCCN(C(=O)c2ccc(OC)c(OC3CCN(C(C)=O)CC3)c2)C1 (configuration not stated)
    3.1, i
CC(=O)Nc1cccc(Oc2ncnc3scc(-c4ccc(C)cc4)c23)c1
    -0.01, i
CN1c2ccccc2C(C)(C)C12CC(c1cccc(S(=O)(=O)N3CCCC3)c1)=NO2 (configuration not stated)
    -0.08, i
Cc1ccc2cc(CN(Cc3ccccc3)Cc3nnnn3C3CCCC3)c(=O)[nH]c2c1
    -0.98, i
COc1ccc(CCNC(=O)c2ccnc(C(C)(C)C)c2)cc1OC
    -0.98, i
COc1ccc(NS(=O)(=O)c2ccc3c(c2)Cc2ccccc2-3)cn1
    -0.5, i
O=C(NCc1ccco1)c1ccc2ccccc2c1
    1.4, i
CCOC(=O)Cn1c(=O)n(Cc2ccc(C)cc2)c(=O)c2cccnc21
    -1.3, i
